RE007 growth inh: qHTS Assay for Inhibitors of the HIV-1 protein Vpr; S. pombe RE007 Vpr strain, BacTiter-Glo ATP luminescence, 24 h; control for the full effect not named in the record; Potency, µM (titrated, usually from 92.2 µM), for inactives: top-dose activity change, negative = less growth; hit rate 0.21% among 360,000; AID 651644, 2012; active = well fitted falling curve with a large enough effect; inconclusive = small, poorly fitted or top-dose-only effect; inactive = no such curve, though single readings can be large or run the other way;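 also: % is scaled to controls: 0 for no effect and ±100 for the full control effect; nearly all actives have a fitted effect of over 50% in size; the assay follows cell death caused by Vpr and the record does not say whether a fall means rescue or toxicity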
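Fission yeast RE007 carrying one integrated HIV-1 vpr copy, seeded at OD 0.01 in PMG+AL medium with 23 nL pinned compound. Grown 24 h at 30 degrees; viability read by BacTiter-Glo luminescence after 5 min.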
StopGo reporter: High Throughput Screening for Foot and Mouth Disease Virus Antivirals; human cells with a luciferase reporter of 2A StopGo recoding; control for the full effect not named in the record; Potency, µM (doses to about 57.9 µM), for inactives: at the highest dose signal change, negative = less light; hit rate 1.2% among 410,000; AID 1159524, 2015; active = well fitted falling curve with a large enough effect; inconclusive = small, poorly fitted or top-dose-only effect; inactive = no such curve, though single readings can be large or run the other way; tested in HEK293T cells; also: % is scaled to controls: 0 for no effect and ±100 for the full control effect; nearly all actives have a fitted effect of over 45% in size; luciferase light after 4 h
Cruzain noTriton: qHTS Assay for Promiscuous and Specific Inhibitors of Cruzain (without detergent) | Cruzipain (Trypanosoma cruzi), P25779 | purified cruzain, Z-FR-AMC fluorescence, no detergent | Potency, µM, without a hit: max response, negative = inhibition, most hits filed as inhibitors | hit rate 2.3% among 200,000 | AID 1476, 2009;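 also: plate controls were enzyme without inhibitor for no effect and buffer without enzyme for full effect; nearly all actives have a fitted effect of over 40% in size; top concentration of the series not given in the record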
Target sequence (P25779 123-467 limits assumed): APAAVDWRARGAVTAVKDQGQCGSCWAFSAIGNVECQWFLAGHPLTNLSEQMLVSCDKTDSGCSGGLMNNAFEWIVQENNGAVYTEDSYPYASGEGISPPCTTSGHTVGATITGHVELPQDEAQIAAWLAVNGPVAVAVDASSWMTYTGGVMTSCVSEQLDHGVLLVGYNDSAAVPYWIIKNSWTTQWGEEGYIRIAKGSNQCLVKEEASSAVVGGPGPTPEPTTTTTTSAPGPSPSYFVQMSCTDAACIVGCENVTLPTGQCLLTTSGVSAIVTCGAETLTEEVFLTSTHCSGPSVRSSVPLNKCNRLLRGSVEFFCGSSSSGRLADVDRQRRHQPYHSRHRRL
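Purified cruzain at 1.5 nM, pre-incubated 15 min with compound at room temperature in 100 mM sodium acetate pH 5.5, 5 mM DTT, 0.00005% Triton X-100. Reaction started with 2 uM Z-FR-AMC; AMC fluorescence increase over 60 s gives rate.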
Marburg entry inh: qHTS for inhibitors of binding or entry into cells for Marburg Virus; AID 540276, 2011; hit rate 1.8% among 300,000; Marburg virus pseudotyped entry inhibition, cell reporter; control for the full effect not named in the record; about a third of the inactives were read at about 46 µM; Potency, µM (doses to about 37.8 µM), for inactives: top-dose activity change, negative = inhibition, most hits filed as inhibitors; active = well fitted inhibition curve with a large enough effect; inconclusive = small, poorly fitted or top-dose-only effect, or effect the other way; inactive = flat fitted curve, though single readings scatter; tested in HEK293 cells; about a fifth of its hits are not listed in these tables; also: % is scaled to controls: 0 for no effect and ±100 for the full control effect; luciferase read-out
LASV entry inh: qHTS for Inhibitors of binding or entry into cells for Lassa Virus. Lassa virus pseudotype entry inhibition, cell reporter; control for the full effect not named in the record. Potency, µM (top dose mostly 37.9 µM), for the others: at the highest dose activity change, negative = inhibition, hits mostly inhibitors. hit rate 1.2% among 300,000; active means well fitted inhibition curve with a large enough effect; inconclusive means small, poorly fitted or top-dose-only effect, or effect the other way; inactive means flat fitted curve, though single readings scatter; tested in HEK293 cells; also: % is scaled to controls: 0 for no effect and ±100 for the full control effect; nearly all actives have a fitted effect of over 50% in size; luciferase read-out
SARS PLpro yeast: qHTS of Yeast-based Assay for SARS-CoV PLP. S. cerevisiae expressing SARS-CoV PLpro, growth rescue; control for the full effect not named in the record. Potency, µM (doses to about 32.9 µM), for the others: top-dose activity, positive = growth rescue. hit rate 0.19% among 330,000. AID 485353, 2010; active means well fitted rising curve with a large enough effect; inconclusive means small, poorly fitted or top-dose-only effect; inactive means no such curve, though single readings can be large or run the other way; also: 0% is about no effect; nearly all actives have a fitted effect of over 55% in size; growth read by luminescence after 48 h
NS1 inh: qHTS Assay for Inhibitors of Influenza NS1 Protein Function. hit rate 0.4% among 270,000. S. cerevisiae slowed by influenza A NS1, growth recovery by OD600. Potency, µM (top dose mostly 46.1 µM), for the others: at the top dose activity, positive = more growth; active means well fitted rising curve with a large enough effect; inconclusive means small, poorly fitted or top-dose-only effect; inactive means no such curve, though single readings can be large or run the other way; also: nearly all actives have a fitted effect of over 50% in size
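S. cerevisiae expressing influenza A NS1, grown in glucose, washed, then diluted 1:100 into pH 6.0 -URA galactose medium with 23 nl compound. Growth recovery read as OD600; NS1-free strain serves as control.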
Cruzain Triton: qHTS Assay for Promiscuous and Specific Inhibitors of Cruzain (with detergent) | Cruzipain (Trypanosoma cruzi), P25779 | purified cruzain, Z-FR-AMC fluorescence, 0.01% Triton | Potency, µM, without a hit: max response, negative = inhibition, actives largely listed as inhibitors | hit rate 0.43% among 200,000 | AID 1478, 2009;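 also: plate controls were neutral wells for no effect and buffer without enzyme for full effect; nearly all actives have a fitted effect of over 40% in size; top concentration of the series not given in the record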
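Detergent-containing run (0.01% Triton X-100) in acetate buffer pH 5.5 with 5 mM DTT: enzyme at 1.5 nM final, 15 min compound preincubation at room temperature, then 2 uM Z-FR-AMC substrate. Activity taken as 60 s fluorescence increase at 360/450 nm.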
* marks the source's active call; other numbers are inactive results; ? = inconclusive; · = no result given; & = joins results of further samples; [ ] = another dose, or the depositor's remark. Unless noted, calls follow the shape of the dose curve; as a rule, active = well fitted curve in the direction sought with a large enough effect; inconclusive = small, poorly fitted or top-dose-only effect, or another doubt; inactive = no such curve, though single readings can be large; an effect the other way counts as inactive or inconclusive. Potency is read from the fitted curve at half-maximal effect.

SMILES	RE007 growth inh	StopGo reporter	Cruzain noTriton	Marburg entry inh	LASV entry inh	SARS PLpro yeast	NS1 inh	Cruzain Triton
O=c1cc(CSc2nnnn2-c2ccccc2)nc2nc[nH]n12	-5.2%	4.7%	-3.1%	4.6%	25.7%	2.1%	5.9%	1.0%
CCCn1c(SCC(=O)Nc2nc(C)cs2)nnc1-c1cccnc1	4.3%	2.1%	3.6%	-0.6%	19.7%	0.1%	1.5%	3.3%
COc1ccc(CCN2C(=O)C3C4CC(C5C(C(=O)O)=NOC45)C3C2=O)cc1OC (stereo not drawn)	22.0%	18.3%	8.5%	5.4%[46.1 µM]	6.3%	25.9%	13.6%	9.1%
CCN(C(=O)c1cccc(NC(=O)c2ccccc2)c1)C1CCCCC1	-12.4%	-20.4%	·	?	?	-5.9%	-6.6%	·
COc1cc(C(=O)NCC(C)(C)CNC(=O)c2cc(OC)c(OC)c(OC)c2)cc(OC)c1OC	-8.8%	-6.0%	·	·	·	?	-17.3%	·
CCN(CC)c1ccc(NC(=O)CNCc2ccccc2Cl)c(C)c1	-3.9%	10.2%	·	-1.3%[46.1 µM]	10µM*	0.6%	-0.2%	·
Cc1ccc(NC(=O)C2CCN(S(=O)(=O)c3ccc4c(c3)OCCO4)CC2)c(O)c1	2.9%	?	·	2.5%	·	4.8%	·	·
COc1ccccc1NC(=O)Nc1nnc(C(C)c2ccccc2)s1 (stereo not drawn)	-3.3%	3.2%	·	·	·	-2.1%	11.6%	·
COc1ccc(CNC(=O)COC(=O)/C=C/c2ccc(S(=O)(=O)N3CCOCC3)cc2)cc1	25.0%	-8.9%	·	?	17.9%[46.1 µM]	-2.1%	·	·
O=C(c1ccccc1)N1CCCC(c2nc3c(nnn3Cc3ccc(F)cc3F)c(=O)[nH]2)C1 (stereo not drawn)	·	?	-8.7%	?	-9.6%[46.1 µM]	·	·	-5.9%
Cc1noc(C)c1CSCc1ccc(Cl)cc1	5.4%	-3.3%	·	-2.3%[46.1 µM]	19.8%[46.1 µM]	-0.3%	-4.6%	·
CNC(=O)CSc1nnc(-c2ccccc2F)n1CCc1ccccc1	-0.6%	-12.2%	·	·	·	-0.4%	-1.3%	·
O=C(COC(=O)CNC(=O)c1ccccc1Cl)NC1CCCC1	-14.6%	8.4%	·	-1.5%[46.1 µM]	5.6%[46.1 µM]	9.7%	·	·
O=C(c1ccc2c(c1)OCO2)N1CCN(c2ccc(C(F)(F)F)cn2)CC1	-10.7%	0.0%	-9.1%	0.5%	-9.2%	29.9%	-4.1%	-7.8%
Cc1ccc(N(C)C2=NC(=O)CS2)cc1Cl	2.7%	?	·	5.2%	1.0%	5.5%	3.0%	·
COC(=O)c1c(N2C(=O)CC(Sc3ccccc3C(=O)O)C2=O)sc2c1CCCC2 (stereo not drawn)	-23.9%	-4.0%	·	-1.3%[46.1 µM]	17.3%[46.1 µM]	-5.6%	·	·
COc1ccc(OC)c(C(c2nnnn2C2CCCC2)N2CCN(c3ccc(F)cc3)CC2)c1 (stereo not drawn)	-3.1%	-8.1%	3.7%	?	?	-9.7%	-1.4%	-3.5%
Cc1ccccc1N1CCN(Cc2nc(Cc3ccccc3)no2)CC1	?	-6.6%	·	5.2%	-27.4%	-0.2%	-3.9%	·
Cc1cc(F)ccc1NCc1ccc([N+](=O)[O-])cc1	24.6%	-6.7%	·	-25.7%[46.1 µM]	7.8%	-1.0%	·	·
COc1ccc(C(=O)Cc2cc3cccc(OC)c3oc2=O)cc1	35.5%	42.5%[activator]	·	·	·	0.9%	-2.6%	·
O=C1Nc2ccc(Br)cc2C1(O)c1ccc(F)cc1 (stereo not drawn)	6.1%	-13.8%	·	·	·	-2.6%	6.3%	·
Nn1c(CN2CCCCC2)nc2ccccc2c1=O	3.2%	·	0.1%	-9.2%	-2.9%	1.0%	-0.9%	-0.2%
CNC(=O)OCc1n(C)cc[n+]1C	-0.4%	-12.6%	3.6%	3.5%	-4.7%	0.9%	-2.7%	-1.1%
Cc1ccc(/C(O)=C2/C(=O)C(=O)N(CCN3CCOCC3)C2c2ccccn2)cc1 (stereo not drawn)	5.5%	6.1%	-3.6%	-1.1%	-0.2%	-6.3%	?	-6.1%
COc1ccc(-c2cc3nnc(-c4ccccc4)nc3s2)cc1	-21.6%	-30.0%	3.16µM*	?	-27.9%	8.1%	-4.9%	-2.0%
O=C(CN1CCc2[nH]c3ccccc3c2C1)N1CCCCC1	1.1%	-5.2%	5.9%	17.2%&17.2%	2.3%	-2.6%	5.9%	4.8%
COc1ccc(-c2nc3n(c2Br)CCC3)cc1	-20.7%	-0.8%	2.1%	7.6%&7.6%	1.4%	-7.4%	-176.1%	-1.8%
COc1ccc(NC(=O)C2CCCN(S(=O)(=O)c3ccc4c(c3)CCCC(=O)N4)C2)c(OC)c1 (stereo not drawn)	·	?	?	·	-4.3%[46.1 µM]	·	·	-0.5%
CCOC(=O)c1ccc(Nc2c(-c3ccc(O)c(OC)c3)nc3nc[nH]n23)cc1	·	0.1%	-3.8%	·	-17.3%[46.1 µM]	·	·	-3.3%
CCOC(=O)c1sc(NC(=O)CSc2nncn2C)nc1C	24.3%	22.7%	·	-7.2%	-11.4%	0.5%	·	·
CC(C(=O)Nc1ccccc1F)N1CCN(S(=O)(=O)c2ccc(C(F)(F)F)cc2)CC1 (stereo not drawn)	-10.1%	-15.5%	·	-26.1%[46.1 µM]	-23.1%	1.4%	·	·
Cc1ccc(S(=O)(=O)NCc2ccc(C(=O)NCCCN3CCC(Cc4ccccc4)CC3)cc2)cc1	0.6%	-4.8%	·	?	?	0.5%	·	·
O=c1c2ccccc2nc(/C=C/c2cccc(Br)c2)n1CCCO	15.9%	-27.4%	·	?	?	-4.6%	8.0%	·
CCOc1cc(-c2nc(-c3ccncc3)no2)cc(OCC)c1OCC	4.5%	0.0%	-0.6%	-0.4%	-13.5%	-1.2%	7.4%	1.5%
CCn1ncc(CNC(=O)CCSc2nc(-c3ccco3)cc(C(F)(F)F)n2)c1C	11.9%	?	?	?	-11.6%	12.3%	4.8%	-5.6%
CC(OC(=O)CNC(=O)c1ccc(Cl)c([N+](=O)[O-])c1)C(=O)NC1CCCCC1C (stereo not drawn)	2.3%	1.7%	·	-3.8%	-6.6%	-0.3%	·	·
COc1ccccc1-n1nc(-c2ccccc2)c2cnc3cc(C(F)(F)F)ccc3c21	·	-7.0%	-0.1%	-0.8%[46.1 µM]	-2.7%[46.1 µM]	·	·	-0.8%
O=C(Nc1ccccc1C(=O)N1CCOCC1)c1ccc(F)cc1	-6.3%	21.8%	-1.6%	1.9%	7.7%	-3.1%	-3.0%	1.8%
O=C(NCC(=O)N(c1ccc(F)cc1)C(C(=O)NC1CCCCC1)c1cccnc1)c1ccco1 (stereo not drawn)	16.5%	11.5%	·	?	?	-9.5%	-5.6%	·
Cc1ccc(S(=O)(=O)/N=C2/C=C(Sc3ncn[nH]3)C(=O)c3ccccc32)cc1	?	-24.7%	?	?	2.91µM*	-75.4%	-31.5%	-7.2%
Cc1cc2cc3c(cc2nc1SCC(=O)Nc1ccccc1)CCC3	6.9%	·	-1.5%	?	-24.5%	-2.8%	14.3%	0.0%
O=C(C1CCCC1)N(c1ccccc1)C1C=CS(=O)(=O)C1 (stereo not drawn)	-16.3%	·	10.8%	-0.2%	9.4%	0.8%	2.3%	2.2%
Cc1ccc(OCCC(=O)OCC(=O)NC(=O)c2ccccc2)cc1	-2.8%	5.7%	·	0.8%[46.1 µM]	-16.6%	-1.1%	·	·
O=C(NCCO)c1cc2ccccc2cc1O	-12.2%	6.4%	-7.7%	-5.0%&-5.0%	1.4%	0.0%&0.1%	-7.7%&10.4%	4.7%
COc1ccccc1N1CCN(CCc2ccccc2)CC1	0.7%	1.7%	·	·	·	-2.0%	-7.6%	·
O=[N+]([O-])c1c(Nc2ccccc2O)ccc2nonc12	0.4%	-29.6%	·	25.1%[46.1 µM]	2.2%	-7.1%	·	·
Cc1ccc(C(=O)Nc2ccccc2Cl)cc1	-11.0%	59.8%[activator]	·	?	?	2.3%	13.6%	·
COc1ccccc1NS(=O)(=O)c1cc(NC(=O)Nc2ccccc2)ccc1N1CCCCC1	8.7%	50.8%[activator]	3.16µM*	?	?	-3.7%	?	1.7%
COc1ccccc1CNS(=O)(=O)c1ccc(-n2cnnn2)c(C)c1	-13.8%	49.6%[activator]	·	-3.2%[46.1 µM]	7.5%	2.3%	-7.3%	·
O=C(NC(=S)N1CCCCC1c1cccnc1)c1ccc(F)cc1 (stereo not drawn)	-7.0%	0.5%	·	·	·	5.4%	?	·
CCc1nn(CC(=O)N2CCC(C)CC2)c(=O)c2cc3occc3n12	·	-14.9%	5.1%	5.5%[46.1 µM]	?	·	·	-4.5%
COc1ccc(CCC(=O)NCc2cn3ccsc3n2)cc1	6.4%	·	·	9.4%	-3.7%	·	9.2%	·
[N-]=[N+]=CC(=O)CC(c1ccccc1)N1C(=O)c2ccccc2C1=O (stereo not drawn)	-6.7%	10.4%	-8.8%	10.3%[46.1 µM]	26.6%	1.2%	-4.0%	3.2%
COC(=O)c1ccccc1Oc1ccc(NC(=O)CCCl)cc1	23.1%	-5.6%	·	25.6%[46.1 µM]	5.5%	-11.2%	·	·
CC(C)(C)OC(=O)N1CCC(c2c(C(=O)NCCN3CCC(Cc4ccccc4)CC3)cnn2-c2cccc(Cl)c2)CC1	·	?	-2.8%	·	?	·	·	-1.8%
